Screening data from PubChem.
TRPV1 PAM – human TRPV1 potentiation | Q8NER1 | TRPV1-expressing cells, Fluo-8 calcium influx, capsaicin EC20 potentiation; host cell line not named in the record; control for the full effect not named in the record | potentiation, % at 8.33 µM | actives 0.02% (n = 320,000) | AID 540277; active means potentiation above 80%; inconclusive means 30% to 80%; inactive means below 30%; further: 0% is about no effect
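Fluo-8 calcium influx in TRPV1-expressing cells, kinetic read (ex 480/em 520 nm). Compound added and read 3 min for agonist activity, followed by capsaicin at EC20 final and 2 min further read for enhancement.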
TRPML1 ag – human mucolipin-1 channel agonism; Q9GZU1; AID 624414; TRPML1-expressing cells, Ca2+ dye fluorescence, FDSS; host cell line not named in the record; reference of the full effect not given here; actives 0.12% (n = 410,000); activation, % (no concentration beside the values); in the data active = activation above about 50%; inconclusive = about 30% to 50%; inactive = below about 30%; further: 0% is about no effect; the text of the record puts the active cut at 80%
Target sequence (Q9GZU1 whole entry, looked up): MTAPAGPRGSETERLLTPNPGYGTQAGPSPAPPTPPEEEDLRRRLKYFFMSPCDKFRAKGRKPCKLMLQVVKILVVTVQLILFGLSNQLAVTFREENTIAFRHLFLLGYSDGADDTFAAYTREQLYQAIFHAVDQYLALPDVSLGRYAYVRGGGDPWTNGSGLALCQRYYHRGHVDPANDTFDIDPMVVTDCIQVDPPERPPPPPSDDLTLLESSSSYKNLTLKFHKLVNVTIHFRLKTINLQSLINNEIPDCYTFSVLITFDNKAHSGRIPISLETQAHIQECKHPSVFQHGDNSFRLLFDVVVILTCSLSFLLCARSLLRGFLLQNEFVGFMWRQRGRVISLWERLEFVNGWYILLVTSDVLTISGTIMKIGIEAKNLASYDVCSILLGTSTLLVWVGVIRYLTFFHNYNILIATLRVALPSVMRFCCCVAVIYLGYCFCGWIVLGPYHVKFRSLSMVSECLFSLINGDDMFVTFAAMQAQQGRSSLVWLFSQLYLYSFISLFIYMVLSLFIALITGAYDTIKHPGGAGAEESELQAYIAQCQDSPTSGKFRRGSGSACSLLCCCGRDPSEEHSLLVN
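TRPML1-DL cells, Tet-induced overnight (~16 h, 37 degrees C), loaded 45-90 min at room temperature with Ca8 no-wash calcium dye plus quencher. FDSS fluorescence: 10 s baseline, compound pin-transfer, 110 s agonist read, then EC80 54-4 (4uM final) and 110 s antagonist read.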
ClpP mod – qHTS Assay for Activators of ClpP; ATP-dependent Clp protease proteolytic subunit (Bacillus subtilis (strain 168)), P80244; purified B. subtilis ClpP, FRET peptide cleavage, 20 min; Potency, µM (doses to about 57.5 µM), without a hit: top-dose activity change, negative = active; actives 1.9% (n = 340,000); active = well fitted falling curve with a large enough effect; inconclusive = small, poorly fitted or top-dose-only effect; inactive = no such curve, though single readings can be large or run the other way; further: potency means the concentration at half of the fitted maximal effect; the source files actives as falling curves though it sought activators and does not explain the sign; nearly all actives have a fitted effect of over 65% in size; many hits overshoot -100%
Target sequence (P80244 whole entry, looked up): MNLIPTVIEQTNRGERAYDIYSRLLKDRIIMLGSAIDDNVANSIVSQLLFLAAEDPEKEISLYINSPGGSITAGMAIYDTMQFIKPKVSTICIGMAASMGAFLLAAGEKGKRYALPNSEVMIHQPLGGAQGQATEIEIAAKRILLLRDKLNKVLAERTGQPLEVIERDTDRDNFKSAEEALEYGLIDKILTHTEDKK
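FRET quenching reversal measured ClpP activation: 10 microg/mL B. subtilis ClpP at pH 8 with the FRET-FV decapeptide, read at 430 nm after 320 nm excitation. The 20-min minus 0-min signal was scaled between DMSO/no-enzyme wells and ADEP (5.8 microM final).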
PINK1 modulator – modulators of PINK1 expression; PINK1 immunofluorescence, high-content cytometry, 24 h; Potency, µM (doses to about 76.6 µM), without a hit: at the highest dose activation (PINK1 increase), actives largely listed as activators; actives 0.2% (n = 410,000); active = well fitted activation curve with a large enough effect; inconclusive = small, poorly fitted or top-dose-only effect; inactive = flat fitted curve, though single readings scatter; cell line not stated here;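 further: potency means the concentration at half of the fitted maximal effect; % of control where 0% means no effect; nearly all actives have a fitted effect of over 65% in size; a mitochondrial uncoupler was the plate control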
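Cells are seeded, rested 12 hours, then given compound at five concentrations or DMSO for 24 hours. After fixation, blocking and antibody staining, PINK1 amount and mitochondrial localization are scored; CCCP serves as control.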
TRPML1 inh – inhibitors of human TRPML1 channel | activity change, negative = inhibition, % (concentration not given with the values) | Q9GZU1 | actives 0.02% (n = 390,000) | TRPML1-inducible cells, Ca2+ dye fluorescence, FDSS; stronger effect = lower value; inhibition of EC80 agonist-evoked calcium signal; in the data active means activity change below about -50%; inconclusive means about -30% to -50%; inactive means above about -30%;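 further: stimulus is agonist 54-4 at its EC80 concentration; on the % scale 0 is the no-effect control and ±100 the full control effect; compound concentration not given in the record; the text of the record puts the active cut at -80%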
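Calcium fluorescence in TRPML1-DL cells induced overnight with Tet: a 110 s read after compound pin addition, then a 110 s antagonist read after challenge with 54-4 at 4 uM final (EC80).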
Sfp inh – inhibitors of Bacillus subtilis Sfp phosphopantetheinyl transferase. Q9F4F7. Biochemical Sfp PPTase activity, qHTS. Potency, µM, for the others: max response, negative = inhibition, usual class: inhibitors. actives 3.5% (n = 310,000). AID 1490; active means well fitted inhibition curve with a large enough effect; inconclusive means small, poorly fitted or top-dose-only effect, or another doubt; inactive means no such curve, though single readings can be large or run the other way;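 further: the enzyme is Sfp with the accession as filed and its product quenches rhodamine fluorescence; potency means the concentration at half of the fitted maximal effect; 0% = enzyme reaction without inhibitor and -100% = no enzyme wells; top concentration of the series not given in the record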
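Fluorescence-quenching assay: 15 nM Sfp-PPTase preincubated 15 min at room temperature with compound, then 5 uM rhodamine-CoA and 12.5 uM BHQ-2-labelled YbbR peptide added. Fluorescence (ex 525/em 598 nm) read at start and after 30 min; difference gives rate.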
Menin MLL FP FL – menin-MLL binding inhibition, fluorescein peptide. Fluorescence polarization, fluorescein-MLL peptide displacement from menin. FP activity change, % at 61.4 µM. 290,000 tested, under 10 active; inconclusive = falling polarisation curve, or a change in total fluorescence; inactive = total fluorescence flat and polarisation flat or rising; no compound was filed as active; the % refers to the polarisation; negative = inhibition;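 further: % of control where 0% means no effect; inhibitors lower the polarisation; unlabelled MLL peptide was the positive control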
* hit, by the source's call; ? = inconclusive; . = not tested or not shown; [ ] = remark or other dose.

SMILES | TRPV1 PAM | TRPML1 ag | ClpP mod | PINK1 modulator | TRPML1 inh | Sfp inh | Menin MLL FP FL
Cc1nc2nc(-c3ccc(Cl)cc3)cn2nc1C | -14 | -0.4 | ? | 4.3% | -28 | 11% | -2.3
O=C(/C=C/c1ccco1)NCCc1ccc(F)cc1 | 1 | 1.3 | . | -2.0% | 0 | -13% | 2.1
COCCN(Cc1ccc(C)cc1)C(=O)[C@H]1O[C@@H](n2ccc(=O)[nH]c2=O)[C@H](O)[C@@H]1O | . | -0.2 | 0.2% | -0.3% | . | . | .
O=S(=O)(Cc1ccccc1)NCc1ccccn1 | 6 | 0.1 | -0.8% | 5.5%[38.3 µM] | 34 | -12% | -0.9
CSc1cccc(CN2CCC(n3nccc3NC(=O)C3CC3)CC2)c1 | -18 | 0.8 | -1.7% | -0.6% | -7 | 12% | .
O=C(CNCCc1ccc(Cl)cc1Cl)NCc1ccco1 | -7 | 2.1 | . | -1.1% | -22 | 14% | 2.0
Cc1ccc2cc(C)c3nnc(SCC(=O)N4CCCc5ccccc54)n3c2c1C | 27 | . | . | . | . | 11% | -2.9
O=C(c1ccc(S(=O)(=O)c2ccccc2)cc1)N1CCc2ccccc2C1 | -12 | -0.5 | 0.9% | -1.5% | 3 | -8% | 4.4
COC(=O)c1ccc(Cl)c(NC(=O)CSc2ncn[nH]2)c1 | -37 | 1.4 | 0.4% | 2.3% | -1 | -1% | -1.6
Cc1n[nH]c(C)c1NC(=O)c1cc([N+](=O)[O-])ccc1Cl | -4 | 0.2 | 2.3% | 0.0% | -6 | 9% | -0.6
Cc1ccc(S(=O)(=O)C2(C(=O)N3CCCCCC3)CC2)cc1 | -3 | 0.3 | -1.8% | -3.6%[38.3 µM] | -5 | 4% | 1.9
Nc1c(-c2nc(-c3ccccc3)cs2)c2ccccn2c1C(=O)c1ccc2c(c1)OCO2 | . | 2.6 | -2.3% | 18% | 5 | . | .
CC(CC(=O)Nc1ccc2c(c1)c(=O)n(C)n2Cc1ccc(F)cc1)C(F)(F)F (configuration not stated) | . | -0.7 | 4.5% | 0.5% | . | . | .
Cc1ccc(CNC(=O)Cn2c(=O)n(-c3ccc(C)c(F)c3)c(=O)c3sc4ccccc4c32)cc1 | . | -0.3 | ? | 1.3% | -10 | . | .
NS(=O)(=O)c1ccc(CCNC(=O)c2cccnc2)cc1 | 6 | 1.3 | -0.7% | ? | 45 | 23% | 1.0
O=c1c2ccccc2sc2ccc(NCCCN3CCOCC3)cc12 | . | 9.4 | -4.0% | 1.6% | 7 | . | .
Cc1ccc(NC(=O)COc2ccc(N3CC(C(N)=O)CC3=O)cc2)c(C)c1 (configuration not stated) | 0 | 0.4 | . | 1.2% | 4 | 4% | 2.8
CCOC(=O)C1=C(C)NC(C)=C(C(=O)OCC)C1c1ccc(C)o1 | -8 | 3.5 | -18% | 0.1% | -12 | 10% | -0.2
CC(=O)OC(C(=O)NC1CCCCC1)c1cccc(F)c1 (configuration not stated) | 19 | 3.1 | 1.7% | -0.3% | 11 | 11% | 1.7
CC(=O)c1ccc(N2CCN(S(=O)(=O)c3ccc4[nH]c5c(c4c3)CCCCC5)CC2)cc1 | . | 0.6 | -12% | 1.3% | -4 | . | .
Cc1cc(C)n2nc(C(=O)OCC(=O)c3ccccc3)nc2n1 | . | -0.2 | -4.0% | -0.6% | -4 | . | .
Cc1ccccc1NC(=S)N1CCCN(Cc2ccc(F)cc2)C1 | 14 | -0.7 | 1.1% | 0.7% | 18 | 13% | -1.6
Cc1cc(C)c(S(=O)(=O)NCc2nc3nc(C)cc(C)n3n2)c(C)c1 | 4 | -0.6 | 1.1% | 0.5% | 1 | 14% | -0.4
Cc1cccc2sc(NNC(=O)c3ccc(S(=O)(=O)N4CC(C)CC(C)C4)cc3)nc12 (configuration not stated) | 4 | 0.1 | -1.6% | 40µM* | 8 | ? | 0.7

Given in markdown: 5 of the compounds above.
| canonical_smiles | TRPV1 PAM | TRPML1 ag | ClpP mod | PINK1 modulator | TRPML1 inh | Sfp inh | Menin MLL FP FL |
| --- | --- | --- | --- | --- | --- | --- | --- |
| CC(=O)OC(C(=O)NC1CCCCC1)c1cccc(F)c1 (configuration not stated) | 19 | 3.1 | 1.7% | -0.3% | 11 | 11% | 1.7 |
| O=c1c2ccccc2sc2ccc(NCCCN3CCOCC3)cc12 | . | 9.4 | -4.0% | 1.6% | 7 | . | . |
| CCOC(=O)C1=C(C)NC(C)=C(C(=O)OCC)C1c1ccc(C)o1 | -8 | 3.5 | -18% | 0.1% | -12 | 10% | -0.2 |
| CC(=O)c1ccc(N2CCN(S(=O)(=O)c3ccc4[nH]c5c(c4c3)CCCCC5)CC2)cc1 | . | 0.6 | -12% | 1.3% | -4 | . | . |
| Cc1cc(C)c(S(=O)(=O)NCc2nc3nc(C)cc(C)n3n2)c(C)c1 | 4 | -0.6 | 1.1% | 0.5% | 1 | 14% | -0.4 |

Remaining list, next part:
SMILES | TRPV1 PAM | TRPML1 ag | ClpP mod | PINK1 modulator | TRPML1 inh | Sfp inh | Menin MLL FP FL
C=CCSC1=Nc2sccc2C2=NC(=O)CN12 | -1 | 0.8 | -16% | -1.6% | 25 | -4% | 13
Cc1c(Cl)c([N+](=O)[O-])nn1Cc1ccc(C(=O)N/N=C\c2cc(Cl)ccc2O)o1 | 0 | -0.3 | -1.9% | 1.1% | 34 | 19% | 3.3
CCCS(=O)(=O)c1nc(S(=O)(=O)c2ccc(C)cc2)c(NCc2ccccc2Cl)s1 | . | 2.2 | -5.0% | -0.9% | -4 | . | .
O=C(Nc1ccc(O)cc1)c1cccc(Oc2ccc([N+](=O)[O-])cc2)c1 | -19 | 1.8 | . | 0.5% | 10 | 18% | -0.3
Cc1ccc(C(=O)NCC(=O)OCC(=O)c2ccc3c(c2)OCCO3)cc1C | -4 | 6.9 | -7.9% | -1.8% | 31 | 1% | -3.7
CSc1ccc(CN2CCC(CO)(Cc3ccc(Cl)cc3)CC2)cc1 | -4 | -0.8 | . | -0.6% | -19 | -15% | -1.6
CC[C@]12CCCN3CCc4c(n(c5ccccc45)C(=O)C1)C32 (some centres not stated) | ? | 0.7 | -5.2% | 4.6% | 12 | -1% | 3.0
COc1ccc(/C=C2\SC(=S)N(CCCC(=O)NNC(=O)c3ccccc3O)C2=O)cc1 | 11 | 1.8 | . | 3.4% | 5 | -21% | -0.8
CCCOC(=O)c1[nH]c2c(c1C)C(=O)CC(c1cccs1)C2 (configuration not stated) | -22 | 2.0 | 1.6% | 3.9% | 1 | 16% | 5.6
O=C(CN1CC(c2ccccc2)CC1=O)Nc1ccc2c(c1)OCO2 (configuration not stated) | 25 | 0.0 | -0.8% | 2.1% | 8 | 26% | 2.2
O=c1c(S(=O)(=O)c2ccccc2)cn(Cc2ccc(F)cc2)c2cc(N3CCOCC3)c(F)cc12 | . | -0.4 | ? | -0.1% | -5 | . | .
C#CC(C)(CC)NC(=O)c1cnn2c(C(F)F)cc(-c3ccccc3OC)nc12 (configuration not stated) | . | 1.8 | -24% | 1.7% | 6 | . | .
CCCCn1c(N)c(N(CCOC)C(=O)c2c(-c3ccccc3)noc2C)c(=O)[nH]c1=O | 3 | -0.2 | -0.5% | 0.9% | -5 | . | .
Cc1ccc(S(=O)(=O)N(C)C)cc1NC(=O)COC(=O)CNC(=O)C12CC3CC(CC(C3)C1)C2 | 1 | 2.4 | -2.5% | -2.6% | 15 | . | .
CCNc1ncc2ncc(=O)n(C3CC3)c2n1 | . | . | . | -1.3% | . | 11% | -5.7
CCCCCCCCCC[N+](C)(C)CC/C=C1/c2ccccc2Sc2ccc(Cl)cc21 | 3 | 1.3 | -2.6% | -1.5% | -3 | 32µM* | -12
COc1ccc(C(=O)Nc2ccc3c(c2)n(C)c(=O)n3C)cc1OC | -7 | 0.3 | -5.6% | 1.6% | -7 | 13% | 3.2
CCOC(=O)c1oc2c(CN3CCN(C)CC3)c(O)ccc2c(=O)c1-c1ccc(Br)cc1 | -2 | 0.8 | ? | 5.4% | -7 | -9% | -0.7
NNC(=O)c1cnn(Cc2ccccc2)c1N | 16 | -0.3 | 1.5% | 4.8% | -16 | 8% | 0.8
COC(=O)C1=C(C(=O)c2ccccc2)C(c2ccc(O)c(OC)c2)n2nnnc2N1 (configuration not stated) | 13 | 1.6 | -1.9% | 3.0% | -3 | 16% | -0.3
Cn1c(SCC(=O)c2ccc(F)cc2)nnc1-c1ccccn1 | -5 | 0.4 | . | -0.3% | 8 | -4% | -0.9
O=[N+]([O-])c1cccc(/C([O-])=C(/C(=S)Nc2ccccc2F)[n+]2ccccc2)c1 | -1 | -0.8 | -0.4% | 1.9% | -3 | 18µM* | -0.6
COC(=O)[C@@]1(Cc2ccc(OC)cc2)[C@H]2c3cc(C(=O)N4CCCC4)n(CCc4ccc(OC)c(Br)c4)c3C[C@H]2CN1C(=O)c1ccccc1 | . | 0.1 | -3.5% | 2.4% | . | 11% | -0.1
Cc1ccc(-n2c(=O)[nH]c3cc(C(=O)NCCc4ccccc4)ccc3c2=O)cc1 | . | 0.1 | ? | 16% | 10 | . | .
COCCn1c(C(C)C)nc2oc3ccccc3c(=O)c2c1=O | 4 | -1.2 | -0.1% | -0.5% | 30 | 10% | 0.4
Cc1ccc2nc(NC(=O)C3CCN(S(=O)(=O)c4cccc5nsnc45)CC3)sc2c1 | 0 | 1.8 | -4.8% | 3.9% | -11 | 16% | 0.4
Cc1cc(C)n2nc(C(=O)OCC(=O)N(C)Cc3ccccc3)nc2n1 | ? | -0.6 | . | 2.2% | 2 | . | .
CCOC(=O)c1sc2nc(CSc3ccccc3)nc(NCCN(C)C)c2c1C | 7 | 0.8 | -6.7% | -1.0% | 25 | -20% | 1.1
N#Cc1nc(Cc2ccccc2)oc1NCCc1ccccc1 | 13 | -0.2 | -2.4% | 1.1% | 10 | 2% | 3.9
N#Cc1cnc2nc(SCc3ccccc3)nn2c1 | -18 | 0.7 | . | 4.9% | 8 | 9% | 11
CN1CCN(C(=O)CSc2nc(-c3ccncc3)ccc2C#N)CC1 | 12 | -0.3 | -19% | 0.7% | -17 | 16% | 0.4
CCc1ccccc1NC(=O)N1CCN(Cc2nc3ccc(C)cc3o2)CC1 | . | -0.2 | 0.8% | 1.1% | -11 | . | .
COCCN(CCOC)C(=O)c1cc2c(=O)n3ccccc3nc2n1C | . | 0.8 | 4.2% | -0.6% | -3 | . | .
